Bioassay records deposited in PubChem BioAssay by National Center for Advancing Translational Sciences (NCATS).
EPAC2 ant val – human EPAC2 antagonism, validation; Potency, µM (series often up to 112 µM), for inactives: at the highest dose activity, negative = inhibition, usual class: inhibitors; hit rate 1.7% among 16,000; EPAC2 Rap1B BODIPY-GDP exchange, fluorescence; active = well fitted inhibition curve with a large enough effect; inconclusive = small, poorly fitted or top-dose-only effect; inactive = no such curve, though single readings can be large or run the other way;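 note: 100% = activation by cAMP agonist control; nearly all actives have a fitted effect of over 40% in size; the record reuses the description of the EPAC1 agonist screen; inactives centre near -10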
Target sequence (Q8WZA2 whole entry, looked up): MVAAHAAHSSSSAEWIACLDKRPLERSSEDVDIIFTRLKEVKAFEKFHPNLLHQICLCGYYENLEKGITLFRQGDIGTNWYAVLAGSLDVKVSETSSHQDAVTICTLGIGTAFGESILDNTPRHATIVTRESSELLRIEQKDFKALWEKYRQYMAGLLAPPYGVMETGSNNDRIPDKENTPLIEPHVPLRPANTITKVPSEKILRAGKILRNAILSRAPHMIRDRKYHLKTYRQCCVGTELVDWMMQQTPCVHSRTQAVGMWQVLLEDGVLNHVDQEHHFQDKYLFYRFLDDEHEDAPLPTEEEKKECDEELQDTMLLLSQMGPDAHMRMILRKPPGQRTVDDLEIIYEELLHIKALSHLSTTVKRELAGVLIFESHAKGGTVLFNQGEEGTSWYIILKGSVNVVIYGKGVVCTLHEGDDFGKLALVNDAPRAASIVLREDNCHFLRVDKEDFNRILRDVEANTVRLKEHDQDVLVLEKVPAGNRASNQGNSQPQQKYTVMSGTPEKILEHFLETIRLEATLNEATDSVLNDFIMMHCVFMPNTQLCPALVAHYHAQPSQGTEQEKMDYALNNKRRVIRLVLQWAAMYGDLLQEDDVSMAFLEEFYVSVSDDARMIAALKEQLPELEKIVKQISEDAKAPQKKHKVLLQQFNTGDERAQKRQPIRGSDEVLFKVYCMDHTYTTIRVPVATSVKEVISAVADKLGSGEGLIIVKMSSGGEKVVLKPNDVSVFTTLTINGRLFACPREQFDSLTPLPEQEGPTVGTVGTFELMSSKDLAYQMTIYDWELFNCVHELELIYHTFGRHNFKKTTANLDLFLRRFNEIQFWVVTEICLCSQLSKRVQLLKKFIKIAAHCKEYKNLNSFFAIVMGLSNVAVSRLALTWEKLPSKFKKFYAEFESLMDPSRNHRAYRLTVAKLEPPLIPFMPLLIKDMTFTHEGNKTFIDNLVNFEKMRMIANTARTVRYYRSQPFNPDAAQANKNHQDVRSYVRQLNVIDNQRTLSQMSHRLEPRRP
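Normalized against a 6.5 mM cAMP agonist control, compounds were tested on 100 nM EPAC2 exchanging Rap1B-bound BODIPY-GDP (250 nM) for 50 uM GDP. Fluorescence drop (ex 480, em 540 nm) was tracked at room temperature over 30 min at 5-min intervals.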
Numbers without * were called inactive; u = inconclusive; & = joins results of further samples; [ ] = dose if it differs, or a comment. Potency is the fitted concentration of half-maximal effect. These rows are one share of the data; rates above refer to the full screens.

SMILES | EPAC2 ant val
NC1(C(=O)O)CCCCC1 | -11.0%
CO[C@H]1[C@H](NC(=O)c2ccsc2)c2ccccc2C12CCN(Cc1cccc3ncccc13)CC2 | 9.9%
CCN1/C(=C/C(C)=O)Sc2ccc(OC)cc21 | -19.6%
Cc1ncc2c(c1CNC(=O)/C=C/c1cccs1)CCN(C(=O)c1c(C)noc1C)C2 | u
NC1CCN(O)C1=O (stereo unspecified) | 9.2%
CC(=O)OCC(COC(C)=O)OC(C)=O | -11.0%&-9.1%
CC[C@@H](CO)NCCN[C@@H](CC)CO | -5.4%[56.6 µM]
COCCn1c(=O)cnc2cnc(N3CCN(C)CC3)nc21 | -21.9%
C/C(=C\COc1cc(=O)[nH]c2ccccc12)CCC(O)C(C)(C)O (stereo unspecified) | 19.2%&-11.1%
N#CC(C#N)=C(N)/C(C#N)=C/c1cc(O)c(O)c(O)c1 | -12.9%
C=C(Nc1ccc(OCC)cc1)Nc1ccc(OCC)cc1 | 16.7%&-1.3%
CS(=O)(=O)N1CCC[C@@]2(CCN(c3ncccn3)C2)C1 | -27.8%
CC[C@H](C)[C@H]1O[C@]2(CC[C@@H]1C)C[C@@H]1C[C@@H](C/C=C(\C)[C@@H](O[C@H]3C[C@H](OC)[C@@H](O[C@H]4C[C@H](OC)[C@@H](O)[C@H](C)O4)[C@H](C)O3)[C@@H](C)/C=C/C=C3\CO[C@@H]4[C@H](O)C(C)=C[C@@H](C(=O)O1)[C@]34O)O2 | -15.6%
CCCCC/C=C\CC(O)/C=C/c1cccc(CC(O)CCCCO)n1 (stereo unspecified) | -15.1%
CC[C@H](CC[C@@H](C)[C@H]1CC[C@H]2[C@@H]3CC=C4C[C@@H](O)CC[C@]4(C)[C@H]3CC[C@]12C)C(C)C | -18.8%
CN(C)c1ncc2nc(-c3cccs3)c(=O)n(C3CC3)c2n1 | 62.6%[activator]
CCS(=O)(=O)Nc1cc(C(=O)N2CCCN(C=O)CC2)c2c(c1)nc(-c1ccccc1)n2C | 12.7%
Cc1cc(C)c2c(n1)NCCC2 | u
Cc1cnnc2ccccc12 | -17.3%
Cc1ccccc1-c1ccc2ncnc(N(C)C)c2c1 | u
CCCCC[C@H]1CN(C2CCCCC2)C(=O)[C@@H]1CC(=O)NCc1ccc(OC)cc1 | u
Cc1csc(C(C)N(C)C(=O)c2cc(NC(=O)C3CCC3)c3c(c2)nc(-c2ccncc2)n3C)n1 (stereo unspecified) | -5.2%
Cc1cnc(-n2ncc(C(=O)N(C)CC3CCCN(C)C3)c2C2CC2)nc1-c1cccs1 (stereo unspecified) | -9.5%
CCc1ccc(S(=O)(=O)O)cc1 | -6.0%
NCCNS(=O)(=O)c1cccc2c(Cl)cccc12 | -5.1%&-6.9%

Carrying on:
SMILES | EPAC2 ant val
COc1cc(-c2cccc(Cl)c2)cc2c1OCCN(C(=O)CCn1ccc(C)n1)C2 | u
COCCN(C)C(=O)c1cnn(-c2ncc3c(n2)-c2ccccc2CCC3)c1C1CC1 | u
CC(=O)Oc1cccc(C(=O)O)c1OC(C)=O | 4.9%
CN(Cc1ccco1)c1ncnc2ccc(-c3ccccc3Cl)cc12 | 39.8µM*
C=C1C(=O)OC2CC1C(OC(C)=O)CC(C)=CCCC(C)=CCC[C@@]2(C)O (stereo partly specified) | -9.4%
CC(O)(C(=O)Nc1ccc(S(=O)(=O)c2ccccc2)cc1)C(F)(F)F (stereo unspecified) | -20.2%[151 µM]
CO/N=C(/C(=O)N[C@@H]1C(=O)N2C(C(=O)OCOC(=O)C(C)(C)C)=C(C)CS[C@H]12)c1csc(N)n1 | u
COc1cc(C[C@H]2C(=O)OC[C@@H]2Cc2ccc(OC)c(OC)c2)ccc1O | u
O=C(c1csnn1)N1CCC[C@@]2(CCN(c3ccccn3)C2)C1 | -19.3%
CC(C)[C@H]1COCCS(=O)(=O)N1Cc1cccc(Cl)c1 | u
CC(=O)Nc1ccc(S[C@@H](CCN2CC[C@H](O)CCC2=O)c2ccccc2)cc1 | -6.6%
O=c1ccc2ccc(O)c(O)c2o1 | 2.7%
COc1ccccc1CNc1ncnc2ccc(-c3ccc(C(=O)N(C)C)cc3)cc12 | -30.4%
CC1CCC2(OC1)OC1CC3C4CCC5CC(O)CCC5(C)C4=CCC3(C)C1C2C (stereo unspecified) | -7.9%
[O-][n+]1ccccc1SSc1cccc[n+]1[O-] | -1.4%
CCCC1OC2CC3C4CCC5=CC(=O)C=CC5(C)C4C(O)CC3(C)[C@]2(C(=O)CO)O1 (stereo partly specified) | -16.5%
O=c1cc(-c2ccc(O)c(O)c2)oc2cc(OC3OC(CO)C(O)C(O)C3O)cc(O)c12 (stereo unspecified) | u
C#CCN1C(C)=C(C(=O)OC)C(c2cccc([N+](=O)[O-])c2)C(C(=O)OCC)=C1C (stereo unspecified) | 44.7µM*
O=C(O)CC/C=C\CC[C@H]1[C@@H](N2CCCCC2)[C@@H](O)C[C@@H]1OCc1ccc(-c2ccccc2)cc1 | -17.7%
CC1O[C@@H](O[C@@H]2C(O)C[C@H](O[C@@H]3C(O)C[C@@H](OC4CC[C@@]5(C)C6CC(O)[C@@]7(C)C(C8=CC(=O)OC8)CC[C@@]7(O)C6CC[C@@H]5C4)OC3C)OC2C)CC(O)[C@H]1O (stereo partly specified) | -14.5%
N#C/C(=C\c1ccc(O)c(O)c1)C(=O)NCc1ccccc1 | u
COc1ccc(-c2nc3cnc(N4CCNCC4)nc3n(Cc3ccc(F)cc3)c2=O)cc1 | -9.9%
CC1CCC(=O)N(CCC#N)CC1 (stereo unspecified) | 0.4%
COc1ccccc1CNc1ccnc(-c2ccoc2)n1 | -18.4%
O=C(C[n+]1cccc(Br)c1)c1ccc(-c2ccccc2)cc1 | -7.4%

The results go on.
SMILES | EPAC2 ant val
CC(C)CSc1nnc(CNC(=O)c2ccccn2)n1C | -3.4%
CN(Cc1ccco1)c1ncnc2ccc(-c3cccc(C#N)c3)cc12 | -17.2%
Cn1cccc1C(=O)N1CCC2(CCN(Cc3nccs3)CC2)CC1 | -27.0%
COc1ccc(CN2CCC3(CCC(CNC(=O)c4ccco4)O3)CC2)c(OC)c1C (stereo unspecified) | -20.8%
O=c1cnc2cnc(N3CCOCC3)nc2n1Cc1cccs1 | -28.7%
CC(C)(C)NC[C@H](O)COc1cccc2[nH]c(=O)[nH]c12 | -14.2%
CCCCCCCC[N+](C)(C)CCCCCCCC | 4.2%&-19.7%
O=C1c2ccccc2C(=O)C1c1ccc(Cl)cc1 | u
Cc1ccc(CNc2ncnc3sc(C(=O)N4CCCC(C(N)=O)C4)c(C)c23)o1 (stereo unspecified) | 12.7%
O=C1CCN(Cc2cccn2-c2ccccn2)CCN1Cc1ccccc1C(F)(F)F | u
C[N+](C)(C)CCOP(=O)(O)OP(=O)([O-])OC[C@H]1O[C@@H](n2ccc(N)nc2=O)[C@H](O)[C@@H]1O | 0.0%&-9.7%
Cc1cccc(CNC(=O)c2cnn(-c3nccc(-c4cc5ccccc5o4)n3)c2C2CC2)n1 | u
CC(C)c1cc(C(=O)N2CCOc3ccc(CN4CCC(Oc5cccnc5)CC4)cc3C2)n[nH]1 | -9.9%
OCC1O[C@@H](OC2C(O)C(CO)O[C@@]2(CO)O[C@@H]2OC(CO)C(O)C(O)C2O)C(O)C(O)C1O (stereo partly specified) | 3.0%
COCc1c(C(=O)N2CCCC(C)C2)cnn1-c1nccc(-c2cc(C)sc2C)n1 (stereo unspecified) | 3.5%
CC(=O)NCCNc1ncncc1-c1ccccc1C(F)(F)F | -15.9%
O=C(c1cnccn1)N1CCC2(CC1)CCN(c1ccncc1)CC2 | -20.8%
CC1CN(CC(=O)NCCc2ccncc2)Cc2ccccc2O1 (stereo unspecified) | -1.8%
CCOC(=O)Oc1c(OC)cc(C(=O)O[C@@H]2C[C@@H]3CN4CCc5c([nH]c6cc(OC)ccc56)[C@H]4C[C@@H]3[C@H](C(=O)OC)[C@H]2OC)cc1OC | -16.6%[29.6 µM]
CC(C1OC(C)(C)C(O)C1O)C1CC[C@@]2(C)C3=CCC4C(C)(C)C(=O)CC[C@]4(C)C3CC[C@@]12C (stereo partly specified) | -28.4%
COc1ccc(-c2nc3cnc(OC)nc3n(CCc3ccccc3)c2=O)cc1 | -24.5%
COc1cccc(C(=O)NCC2Cc3cccc(-c4cccnc4)c3O2)c1 (stereo unspecified) | u
O=C/C=C/c1ccc(O)cc1 | -6.0%
CN(C)c1ncc2nc(-c3cc(F)cc(F)c3)c(=O)n(Cc3ccc(F)cc3)c2n1 | 8.9%
O=C(Nc1cccc(F)c1)N1CC2(CCN(C(=O)c3cc(C(F)(F)F)cc(C(F)(F)F)c3)CC2)C1 | u

More entries
SMILES | EPAC2 ant val
N#CCCn1c(=O)c(-c2ccccc2)nc2cnc(Oc3ccccc3)nc21 | u
CN(C)c1ncc2nc(-c3cc(F)cc(F)c3)c(=O)n(Cc3cccs3)c2n1 | -22.0%
CCCn1c(=O)c2[nH]c(C3CCCC3)nc2n(CCC)c1=O | u
COCCNc1cc(-c2ccccc2C(F)(F)F)ncn1 | -13.3%
COCC(=O)N1CCC2(CC1)CN(c1ccncc1)C2 | -20.1%
CC(C)OC(=O)C(C)(C)Oc1ccc(C(=O)c2ccc(Cl)cc2)cc1 | u
Cc1ccc(SCCN2CCC(C)CCC2=O)cc1 (stereo unspecified) | 4.9%
c1coc(CNc2ncnc3nc[nH]c23)c1 | -6.7%
CS(=O)(=O)OCCCNCCCOS(C)(=O)=O | 13.7%
Cc1cc(O)cc2c1O[C@](C)(CCC[C@H](C)CCC[C@H](C)CCCC(C)C)CC2 | -4.8%&-6.9%
CN(C)CCCN1c2ccccc2CCc2ccc(Cl)cc21 | u
COc1ccc(NC(=O)N2CCC3(CC2)CCN(C(=O)c2csnn2)CC3)cc1 | -15.5%
CCCCCCCCCCOCCC(=O)O | -17.9%[11.4 µM]
COc1ccccc1-c1nc(NCc2cccnc2)c2ccccc2n1 | -13.5%
CC(C)(C)C(=O)OCOP(=O)(COCCn1cnc2c(N)ncnc21)OCOC(=O)C(C)(C)C | -18.2%
CCc1ncnc2cc(OC)c(OC)cc12 | -28.9%
O=C(c1ccc(N2CCC(NCCCn3ncc4ccccc43)CC2)cc1)N1CCc2ccccc2C1 | -2.1%
CN1CCN(c2ncnc3ccc(-c4ccc(C(=O)N(C)C)cc4)cc23)CC1 | -18.8%
COc1cc2c(cc1OC)[C@@H]1C(=O)c3ccc4c(c3O[C@@H]1CO2)C=CC(C)(C)O4 | u
COCCn1c(=O)c(-c2cn(C)c3ccccc23)nc2cnc(Oc3cccc(Cl)c3)nc21 | 6.4%
Cc1ccc(S(=O)(=O)NCl)cc1 | 15.8%
